Screening data from PubChem.
YjeE inh – inhibitors of E. coli YjeE (TsaE) | P0AF67 | purified YjeE, fluorescence polarisation of a bound ADP probe | Potency, µM | actives 0.05% (n = 71,000); active = well fitted falling curve; inconclusive = weaker or top-dose-only fall, or a rising curve; inactive = flat or poorly fitted curve;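 note: top concentration of the series not given in the record; excess ADP was the control for the full effect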
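Fluorescence polarization of a BODIPY Texas Red–ADP probe (2 uM) bound to purified YjeE (10 uM) was read after 15 min room-temperature incubation with compounds. Loss of polarization marks inhibitors; ADP serves as titrated control.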
Bst PK mod – modulators of Bacillus stearothermophilus pyruvate kinase. partly purified Bacillus stearothermophilus pyruvate kinase, luminescence ATP production; ribose 5-phosphate activator present at AC10. Potency, µM. actives 1.2% (n = 51,000); in the data active means potency below about 11 µM; inconclusive means mostly about 12 µM to 25 µM; inactive means weaker than that;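 the screen sought inhibitors and activators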;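 note: potency is the fitted concentration of half-maximal effect; scaled between full activation by ribose 5 phosphate and full inhibition by luteolin; about four in five hits inhibit and the cells do not say which; series up to 57 µM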
Numbers without * were called inactive; i = inactive; u = inconclusive; x = not tested or not shown. The list is partial, so the mix of outcomes need not match the whole.

Values in the order: YjeE inh, Bst PK mod
- CCOC(=O)C1CCN(c2nc3ccccc3nc2C(C#N)C(=O)OCCOC)CC1 (stereo not drawn)
 : x, 2.28*
- COCc1cc(C)c(C#N)c(=S)[nH]1
 : i, >57
- CCOC(=O)CSc1nnc(-c2nnc(SCC(=O)OCC)n2CC)n1CC
 : i, >57
- Cc1ccnc(SCCn2c(N3CCOCC3)nc3c2c(=O)[nH]c(=O)n3C)n1
 : i, >57
- CCCS(=O)(=O)N1CCC(C(=O)NCCc2ccccc2)CC1
 : i, >57
- CCOC(=O)c1c(C)[nH]c(C(=O)COC(=O)C2CC2C)c1C (stereo not drawn)
 : i, i
- O=C(Nc1ccc(N2CCOCC2)cc1)Nc1cnsn1
 : i, x
- O=C(CSc1nnc(Cc2cccs2)n1-c1ccccc1)Nc1ccc2c(c1)OCCO2
 : i, >57
- Cc1noc(C)c1-c1cc(NCc2ccccc2)ncn1
 : i, x
- COc1ccccc1C(=O)OCC(=O)Nc1ccc(OC(F)F)cc1
 : i, >57
- O=C(Cn1cnc2c(nnn2-c2ccc(F)cc2)c1=O)N1CCCC1
 : i, >57
- COc1ccc(C2CC(c3ccccc3)n3nc(NC(=O)c4cccs4)nc3N2)cc1 (stereo not drawn)
 : i, x
- CCN(CC)S(=O)(=O)c1cccc(C(=O)NC(C(=O)Nc2nnc(C3CC3)s2)C(C)C)c1 (stereo not drawn)
 : i, >57
- Cn1cccc1C(=O)N1CCC2(CC1)CN(c1ccccn1)C2
 : i, x
- COc1cc(NC(=O)Cn2ncc3c2-c2ccccc2OC3)cc(OC)c1OC
 : i, x
- COC(=O)c1[nH]cnc1C(=O)c1ccccc1
 : i, >57
- N[C@@H](C(=O)O)c1cc(O)ccc1Cl
 : i, x
- CCOC(=O)C1CCN(C(=O)Nc2ccc(NC(=O)C3CCN(C(=O)OCC)CC3)cc2)CC1
 : i, >57
- N#CC1=C(N)N(c2ccccc2C#N)C2=C(C(=O)CCC2)C1c1ccsc1 (stereo not drawn)
 : i, >57
- O=C(Nc1ccn(C2CC(OC(=O)c3ccccc3)C(CO)O2)c(=O)n1)c1ccccc1 (stereo not drawn)
 : i, >57
- COc1ccc2nc(NC(=O)c3ccc(-n4nc(C)cc4C)cc3)sc2c1
 : i, >57
- Cn1cc(-c2nc3cnc(N4CCNCC4)nc3n(CCC#N)c2=O)c2ccccc21
 : i, x
- CO[C@@H]1/C=C\O[C@]2(C)Oc3c(C)c(O)c4c(O)c(c(CN5CCN(C)CC5)c(O)c4c3C2=O)NC(=O)/C(C)=C\C=C[C@@H](C)[C@@H](O)[C@H](C)[C@@H](O)[C@H](C)[C@H](OC(C)=O)[C@@H]1C
 : i, x
- Cc1nnc(SCCn2c(N3CCCCC3)nc3c2c(=O)[nH]c(=O)n3C)s1
 : i, >57
- O=C(NCCCNC(=O)c1cccs1)c1cccs1
 : i, x
- CC1(C)S[C@@H]2[C@H](NC(=O)C(C(=O)O)c3ccccc3)C(=O)N2[C@H]1C(=O)O (stereo partly drawn)
 : x, >25.6
- O=C(NCc1ccc2c(c1)OCO2)c1nnc(Cc2ccc(Cl)cc2)o1
 : i, x
- O=C(CN1C(=O)C2C3C=CC(C3)C2C1=O)NC1CCCc2ccccc21 (stereo not drawn)
 : i, >57
- O=C(O)CCSCc1ccc(I)cc1
 : i, x
- CCOC(=O)C1CCCN(C(=O)c2cc3ncc(Br)cn3n2)C1 (stereo not drawn)
 : i, >57
- CCCC1(C(=O)OCC)NC(c2ccc(N(C)C)cc2)C2C(=O)N(c3ccc(F)cc3)C(=O)C21 (stereo not drawn)
 : i, >57
- CC(C)OC(=O)C(NC(=O)c1ccccc1)=C1CCCCC1
 : i, x
- CC1(C)CC(=O)C2=C(C1)Nc1ccccc1NC2c1ccccn1 (stereo not drawn)
 : i, x
- [O-][N+]1=C2CCC/C(=N\O)C2=NC12CCCCC2
 : i, x
- NC(=O)c1cccc2c3c([nH]c12)CCCC3
 : i, x
- CCOc1ncccc1C(=O)OCc1cc(=O)oc2c(C)c(C)ccc12
 : i, >57
- CC(=O)N1CCc2cc(NS(=O)(=O)c3cccs3)ccc21
 : i, >57
- NCCC[C@@H](CC(=O)N[C@@H]1CCNC[C@H]1C(=O)N[C@H](CC(=O)N[C@@H](CCC(=O)O)CC(=O)O)Cc1ccccc1)NC(=O)C[C@H](CO)NC(=O)[C@@H]1CNCC[C@H]1N
 : i, x
- CN(Cc1ccc(-n2cccn2)cc1)C(=O)c1cnn2c1NC(c1ccco1)CC2C(F)(F)F (stereo not drawn)
 : i, >57
- Cc1cccc(OCC(=O)Nc2ccccc2N2CCN(C(=O)C(C)C)CC2)c1C
 : i, >57
- Cn1c(=O)c2c(-c3ccncc3)c3c(nc2n(C)c1=O)-c1ccccc1C3=O
 : i, >57
- CCOC(=O)C1CCCN(C(=O)c2cc(=O)c3ccccc3o2)C1 (stereo not drawn)
 : i, >57
- COCCn1c(=N)c(C(=O)NCCc2ccc(OC)cc2)cc2c(=O)n3cccc(C)c3nc21
 : i, >57
- CCN(CC)c1ccc(NC(=O)c2cccc(OC)c2)c(C)c1
 : i, >57
- Cc1c2cccn2cc[n+]1C
 : i, >57
- O=C(NCCN1CCOCC1)c1ccc2c(c1)N(Cc1ccccc1)CCS2
 : i, x
- Cc1nc(S(=O)(=O)N(C)Cc2ccccc2)c(C#N)c(C)c1Cl
 : i, i
- C/C(=N\O)C(=O)NCCN1CCCCC1
 : i, >57
- CC1Cc2ccccc2N1C(=O)COc1nc2ccccc2nc1N1CCOCC1 (stereo not drawn)
 : i, >57
- COc1ccc2[nH]c(=O)c(CN(Cc3ccc4c(c3)OCO4)C(C)=O)cc2c1
 : i, >57
- COc1ccc(-c2csc(C3=C(O)CN(Cc4ccc(S(N)(=O)=O)cc4)C3=N)n2)cc1OC
 : i, >57
- O=C(NCC1CCCO1)c1nnc(Cc2ccc(F)cc2)o1 (stereo not drawn)
 : i, x
- CCOC(=O)C1CCN(C(=O)C2c3ccccc3C(=O)N(C)C2c2ccc(OC)cc2)CC1 (stereo not drawn)
 : i, >57
- Cc1ccc(C(=O)CC(C(=O)O)c2cn(CCC#N)c3ccccc23)cc1 (stereo not drawn)
 : i, x
- CCOC(=O)N1CCN(C(=O)c2cn(CCOC)c(=O)c3c2c2ccccc2n3C)CC1
 : i, >57
- CN(C(=O)Cn1c(=O)n(CCCCC(=O)NC2CCCC2)c(=O)c2ccccc21)C1CCCCC1
 : i, >57
- Cc1cc(C)n2cc(CSc3nnnn3-c3ccc(Cl)cc3)nc2n1
 : i, >57
- CC(=O)CSc1nnc(CSc2ncccn2)n1C1CCCCC1
 : i, >57
- Cc1cccc(N(C)S(=O)(=O)c2ccc3[nH]cc(C(=O)N4CCOCC4)c(=O)c3c2)c1
 : i, >57
- Cc1noc(C)c1-c1nc(Nc2ccc(F)cc2)c2ccccc2n1
 : i, x

More records follow:
Values in the order: YjeE inh, Bst PK mod
- CCCn1c(SCC(=O)Nc2sc(C)c(C)c2C(=O)OCC)nc2c1c(=O)n(C)c(=O)n2C
 : i, >57
- N[C@@H](Cn1cc(I)c(=O)n(Cc2ccc(C(=O)O)cc2)c1=O)C(=O)O
 : i, x
- C=Cc1cccc(C)c1
 : i, x
- N#CC1=C(N)Oc2cc(O)ccc2C1c1cccs1 (stereo not drawn)
 : i, >57
- Cc1ccc(P(=O)(O)c2ccc(C)cc2)cc1
 : i, x
- CCCCCc1c(C)nc(Nc2nc(C)c3cc(OC)ccc3n2)[nH]c1=O
 : i, >57
- COc1cccc(Cn2c(=O)c(-c3cc(F)cc(F)c3)nc3cnc(OC)nc32)c1
 : i, x
- COc1ccc(-c2c(C)oc3c(CN4CCN(CCO)CC4)c(O)ccc3c2=O)cc1OC
 : i, >57
- O=C(COC(=O)c1cccs1)Nc1ccccc1
 : i, >57
- Cc1cc(C)c(C#N)c(SCS(=O)Cc2ccccc2)n1 (stereo not drawn)
 : i, >57
- COc1ccc(OC)c(C2CC(=O)c3c([nH]c(C(=O)OC(C)C)c3C)C2)c1 (stereo not drawn)
 : i, x
- O=C(NCCc1csc(-c2cccnc2)n1)c1ccco1
 : i, x
- CCSc1oc(-c2ccccc2)nc1S(=O)(=O)c1ccccc1
 : i, >57
- CCOc1cc2[nH]c(=O)n(Cc3cccc(OC)c3)c(=O)c2cc1OCC
 : i, >57
- CCCOC(=O)C1=C(C)NC2=C(C(=O)C(C(=O)OC)C(C)C2)C1c1ccc(N(CC)CC)cc1 (stereo not drawn)
 : i, >57
- CCn1cc(C2=NCC(C)O2)c2ccccc21 (stereo not drawn)
 : i, >57
- Cc1ccc(C(N)=Nc2ccccc2)cc1
 : i, x
- Cc1c(/C(O)=C2\C(=O)C(=O)N(CCN(C)C)C2c2cccs2)cnn1-c1ccccc1 (stereo not drawn)
 : x, >25.6
- CC(C)(CS)C(=O)N1CCC[C@H]1C(=O)O
 : i, x
- COc1cnc(NS(=O)(=O)c2ccc(N)cc2)nc1
 : i, x
- CCOC(=O)c1nc2nc(C)cc(=O)n2[nH]1
 : i, x
- CCn1c(C2CC(=O)N(c3cc(C)cc(C)c3)C2)nc2ccccc21 (stereo not drawn)
 : i, x
- Cc1ccc(N(C=NC#N)CC(=O)N2CCN(c3ccccc3)CC2)cc1
 : i, >57
- CCN1CCN(C(=O)CN(c2ccccc2C)S(C)(=O)=O)CC1
 : i, >57
- O=C(CSc1nc2cccnc2n1Cc1ccccc1)NCc1ccco1
 : i, >57
- CCOC(=O)CN1C(=O)C(C)(C)Oc2ccc(C(=O)Nc3ccccc3)cc21
 : i, >57
- CC1=CCC2C(=O)N(c3ccc(Br)cc3C)C(=O)C2C1 (stereo not drawn)
 : i, >57
- O=C(CCSc1nnc(-c2ccco2)o1)Nc1ccc(Cl)cc1
 : i, >57
- COc1ccc(-c2coc3ccc(O[C@@H]4O[C@@H](COC(C)=O)[C@@H](OC(C)=O)[C@@H](OC(C)=O)[C@H]4OC(C)=O)cc3c2=O)cc1
 : i, x
- COc1cc(OC)c(-c2nn3c(C4CCCCC4)nnc3s2)cc1OC
 : i, >57

Gathered by group, the compounds so far with a COOH group.
Values in the order: YjeE inh, Bst PK mod
- N[C@@H](C(=O)O)c1cc(O)ccc1Cl
 : i, x
- CC1(C)S[C@@H]2[C@H](NC(=O)C(C(=O)O)c3ccccc3)C(=O)N2[C@H]1C(=O)O (stereo partly drawn)
 : x, >25.6
- O=C(O)CCSCc1ccc(I)cc1
 : i, x
- NCCC[C@@H](CC(=O)N[C@@H]1CCNC[C@H]1C(=O)N[C@H](CC(=O)N[C@@H](CCC(=O)O)CC(=O)O)Cc1ccccc1)NC(=O)C[C@H](CO)NC(=O)[C@@H]1CNCC[C@H]1N
 : i, x
- Cc1ccc(C(=O)CC(C(=O)O)c2cn(CCC#N)c3ccccc23)cc1 (stereo not drawn)
 : i, x
- N[C@@H](Cn1cc(I)c(=O)n(Cc2ccc(C(=O)O)cc2)c1=O)C(=O)O
 : i, x
- CC(C)(CS)C(=O)N1CCC[C@H]1C(=O)O
 : i, x

Next compounds:
molecule	YjeE inh	Bst PK mod
CS(=O)(=O)Nc1ccc(Cc2ccc(NS(C)(=O)=O)cc2)cc1	i	>57
CCCC(=O)Nc1ccc(NC(=O)c2ccccc2OC)cn1	i	>57
O=C(COc1ncnc2ccccc12)N1CCN(S(=O)(=O)c2ccc(Cl)cc2)CC1	i	>11.4
O=C(CCn1c(=O)oc2ccccc21)N1CCOCC1	i	>57
O=C(CN1C(=O)C2C3C=CC(C3)C2C1=O)NCCN1CCCc2ccccc21 (stereo not drawn)	i	>57
CCCCCCCCC/C=C/CC1CC(=O)OC1=O (stereo not drawn)	i	x
CC(C)(C)C(=O)Cn1c(NCCCO)nc2ccccc21	i	>57
COC(=O)CCn1nnc(-c2ccc(C)cc2)n1	i	>57
Cc1nc2c3cnn(-c4ccccc4)c3ncn2n1	i	x
Cc1nc2cncnc2n(Cc2ccccc2)c1=O	i	x
CC1CCN(S(=O)(=O)c2ccc3c(c2)c(=O)c(C(=O)N2CCCCC2)cn3C)CC1	i	>57
COCCOC(=O)C1=C(C)NC(=O)CC1c1cc2c(cc1Br)OCO2 (stereo not drawn)	i	>57
Cc1cc(C(=O)N2CCN(c3cccc(Cl)c3)CC2)c(C)o1	i	>57
O=C1c2ccccc2CC1Sc1nnc(-c2ccncc2)o1 (stereo not drawn)	i	>57
O=c1c(-c2ccc(F)cc2)nc2cnc(N3CCNCC3)nc2n1-c1ccccc1	i	x
Clc1ccc(-c2nc3nc4ccccc4nc3n2Cc2ccco2)cc1	i	>57
CC1=Nn2c(nnc2-c2cc(C)[nH]n2)SC1	i	>57
CN(C)S(=O)(=O)c1ccc(C(=O)Nc2nc(-c3cccs3)cs2)cc1	i	x
Cc1nnc(NC(=O)CSc2nnc(Cc3ccccc3)n2Cc2ccccc2)s1	i	>57
Cc1cccc(OCCCCCn2ccnc2)c1C	i	x
COc1ccccc1Nc1nnc(SCC(=O)N2CCCC2)s1	i	>57
COC(=O)c1[nH]c2cc(C)ccc2c1NC(=O)CN1CCCc2ccccc21	i	>57
CC1(C)CC(=O)C=C(NC2CCCCCC2)C1	i	x
O=C(c1c(Cl)cccc1Cl)N1CCCCCC1	i	u
CN(C(=O)c1ccco1)c1nnc(C23CC4CC(CC(C4)C2)C3)s1	i	x
O=C(c1cccn2c(=O)c3cc(Cl)ccc3nc12)N1CCN(Cc2ccc3c(c2)OCO3)CC1	i	>57
COc1ccccc1N1CCN(C(=O)CCn2c(=O)[nH]c3ccsc3c2=O)CC1	u	>57
Cc1ccc(CN2C(=O)CCC2C(=O)NCC2CCCO2)cc1 (stereo not drawn)	i	>57
Cc1cc(C)n(-c2nnc(C)n2NS(C)(=O)=O)n1	i	>57
Cn1c(SCc2ccc(C#N)cc2)nnc1-c1ccccc1	i	>57
COc1cccc(CNc2cccc3cccnc23)c1O	i	u
CC(=O)Nc1ccc(S(=O)(=O)NCc2csc(C)n2)cc1	i	>57
